TAR Tat displ = HIV-1 TAR-Tat binding disruption; HIV-1 TAR RNA, Tat peptide displacement FRET; active compounds read high; z-score (concentration not given with the values); hit rate 0.6% among 100,000; AID 1259389;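 further: score is relative to mean and SD of negative controls; some compounds called inactive have numbers as strong as hits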
CDC25B CDK2 inh = human CDC25B-CDK2/CyclinA binding inhibition | HTRF CDC25B-CDK2/CyclinA binding, anti-His/anti-Flag; active compounds read high | hit rate 0.72% among 94,000 | z-score (test concentration not listed) | P30305+P24941 | AID 1259370;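 further: score is relative to mean and SD of negative controls; strong numbers were not always called active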
* = called active by the depositor.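 How the source made its calls: active means z-score from 3 up in half or more of its runs; inactive means the rest.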

Screening CCCc1nn2c(=O)cc(CSc3nnc(-c4ccc(Cl)cc4)o3)nc2s1 returned TAR Tat displ -0.14 and CDC25B CDK2 inh -2.2.
Screening O=C(O)c1ccc(Cn2c(SCc3ccc(F)cc3)nc3ccncc32)cc1 returned TAR Tat displ 1.3 and CDC25B CDK2 inh -1.5.
Cc1ccc(CS(=O)Cc2ccc(C(=O)O)o2)cc1 (configuration not stated) was read as TAR Tat displ 1.8.
CC(C)c1ccc(N2CC(O)=C(c3nc4ccccc4s3)C2=N)cc1 was read as TAR Tat displ -0.64 and CDC25B CDK2 inh -1.6.
For Cc1cccc(C(=O)Nc2nc3c(F)cc(F)cc3s2)c1 the results were CDC25B CDK2 inh -2.2.
Screening COc1cc(C2C(=O)N(C3CCC(C)CC3)CC(=O)N2Cc2ccco2)ccc1OC(C)C (configuration not stated) returned CDC25B CDK2 inh -1.1.
`Cc1cc(NC(=O)c2[nH]nc3c2CCc2ccccc2-3)no1` gave TAR Tat displ 0.24.
For Cc1ccc(C(=O)n2c(=O)oc3ccc(C)cc32)cc1 the results were TAR Tat displ 0.53.
`N#C/C(=C\c1ccc(OCc2cc(F)cc(F)c2)cc1)S(=O)(=O)c1ccccc1` gave CDC25B CDK2 inh -1.7.
`CCOC(=O)c1c(C)[nH]c(C)c1S(=O)(=O)N1CCC(C(=O)NC2CCCCC2)CC1` gave TAR Tat displ -0.62.
For Cc1cn2c(=O)c(S(=O)(=O)N3CCC(Cc4ccccc4)CC3)c(C)nc2s1 the results were TAR Tat displ -0.02.
Cc1cc(=O)oc(C)c1C(=O)NCC1COc2ccccc2O1 (configuration not stated) was read as CDC25B CDK2 inh -0.71.
Screening CCOCc1nc(N2CCOCC2)sc1C(=O)O returned TAR Tat displ 0.36 and CDC25B CDK2 inh 0.09.
For CC1(C)COC(O)(C(F)(F)F)CC1=O (configuration not stated) the results were CDC25B CDK2 inh -2.
Cc1cc(C)n2nc(NC(=O)C3CCCO3)nc2n1 (configuration not stated) was read as TAR Tat displ -0.08 and CDC25B CDK2 inh -2.2.
`CC1=C(c2ccc(Cl)cc2)S(=O)(=O)N=C1Nc1cccc(C)c1C` gave TAR Tat displ 0.58 and CDC25B CDK2 inh -1.6.
CCC1(C)Cc2c(sc3[nH]c(=S)n(-c4ccccc4)c(=O)c23)CO1 (configuration not stated) was read as CDC25B CDK2 inh -1.3.
For CCOC(=O)c1[nH]c(C)c(C(=O)NCCN2CCOCC2)c1C the results were TAR Tat displ 1.8 and CDC25B CDK2 inh -0.67.
Screening N#Cc1cc2c(nc1SCC(=O)c1ccc(F)cc1)CCCC2 returned TAR Tat displ -0.06 and CDC25B CDK2 inh -3.2.
COc1ccccc1/C=C/c1nn2c(C3COc4ccccc4O3)nnc2s1 (configuration not stated) was read as TAR Tat displ 1.7 and CDC25B CDK2 inh -1.1.
Cc1cc(N2CCN(C)CC2)nc(N2CCN(S(=O)(=O)c3ccc4nc(C)sc4c3)CC2)n1 was read as TAR Tat displ 1.
CCOC(=O)c1nc(Nc2cccc(C)n2)c2ccccc2n1 was read as TAR Tat displ -0.17.
Cc1c(-c2nc(-c3ccccc3Cl)no2)nnn1-c1ccc(F)cc1F was read as TAR Tat displ 0.25.
Screening CC1=C(C(=O)OCCOC(C)C)C(c2cccnc2)C2=C(CCCC2=O)N1 (configuration not stated) returned TAR Tat displ 0.99 and CDC25B CDK2 inh -2.4.
Screening CCOc1ccc(C(=O)c2cnc3ccc(C)cc3c2N2CCCC2)cc1 returned TAR Tat displ 0.25 and CDC25B CDK2 inh -0.22.
For Cn1c(=O)c2cc(C(=O)NCCCN3CCCC3)sc2c2ccccc21 the results were TAR Tat displ -0.48 and CDC25B CDK2 inh 0.42.
Screening COCCNC(=O)CSc1nc2cc3c(cc2c(=O)n1Cc1ccco1)OCO3 returned CDC25B CDK2 inh 0.17.
`CN(C)c1ccc(C=Nc2ccc(S(N)(=O)=O)cc2)cc1` gave CDC25B CDK2 inh -1.3.
`O=C(Cn1c(=O)n(Cc2ccco2)c(=O)c2oc3ccccc3c21)Nc1ccc(F)cc1` gave TAR Tat displ 1.7.
`CN1C(=O)Cc2cc(S(=O)(=O)Nc3ccc(-c4cc5cc(F)ccc5[nH]4)cc3)ccc21` gave TAR Tat displ -8.3.

Of the compounds above, these have a thiophene ring, fused or not:
CCC1(C)Cc2c(sc3[nH]c(=S)n(-c4ccccc4)c(=O)c23)CO1 (configuration not stated) was read as CDC25B CDK2 inh -1.3.
For Cn1c(=O)c2cc(C(=O)NCCCN3CCCC3)sc2c2ccccc21 the results were TAR Tat displ -0.48 and CDC25B CDK2 inh 0.42.

The list continues.
Screening O=C(NCC1NCCc2ccccc21)C1CCCCC1 (configuration not stated) returned TAR Tat displ 0.58 and CDC25B CDK2 inh -1.6.
CCc1nnc(NC(=O)CSc2ccc(-c3ccncc3)nn2)s1 was read as TAR Tat displ 0.75.
COc1ccc(S(=O)(=O)N2CCc3cc(OC)c(OC)cc3C2c2ccc(OC)c(OC)c2)cc1 (configuration not stated) was read as TAR Tat displ 0.26 and CDC25B CDK2 inh -0.15.
For O=C(NCCCn1ccnc1)C1CC(c2ccccc2Cl)=NO1 (configuration not stated) the results were TAR Tat displ 0.12 and CDC25B CDK2 inh -3.3.
`O=C(Cn1ncn2c(cc3ccccc32)c1=O)NCCc1cccs1` gave TAR Tat displ 0.18 and CDC25B CDK2 inh -2.
Screening CC1(C)C(=O)C2(CCCCC2)C(=O)OC1C(=O)c1ccc(Br)cc1 (configuration not stated) returned TAR Tat displ -0.62 and CDC25B CDK2 inh -0.43.
Screening O=c1c(Cc2ccccc2)c(O)nc2n1CCS2 returned TAR Tat displ -0.45 and CDC25B CDK2 inh 0.93.
`O=C(c1ccco1)N1CCN(C(=O)C2CCN(S(=O)(=O)c3cccnc3)CC2)CC1` gave TAR Tat displ 2.6.
Screening Cn1ccnc1Sc1cnc(=S)[nH]c1-c1ccccc1 returned CDC25B CDK2 inh -0.5.
For Cc1cc(C(=O)Oc2ccccc2)oc(=O)c1 the results were CDC25B CDK2 inh -1.6.
For O=C(Nc1cc(F)ccc1F)c1cnn(-c2ccc(F)cc2)c1-n1cccc1 the results were TAR Tat displ -0.09.
`CC1=C(c2ccc(Cl)cc2)S(=O)(=O)N=C1N1CC(C)CC(C)C1` (configuration not stated) gave TAR Tat displ -1.4 and CDC25B CDK2 inh -4.7.
For OC1(C(F)(F)F)CC(C23CC4CC(CC(C4)C2)C3)=NN1 (configuration not stated) the results were CDC25B CDK2 inh -0.25.
Screening CCOC(=O)c1ccc2c(c1)NC1(CCCCC1)C(=NC1CCCCC1)N2 returned TAR Tat displ -0.42.
`Cc1cc(C)c(NC(=O)CSc2nc(=O)[nH]nc2C)c(C)c1` gave TAR Tat displ 0.6 and CDC25B CDK2 inh -1.9.
For O=c1[nH]c2c(-c3cccc(F)c3)sc(=S)n2c2ccccc12 the results were TAR Tat displ 0.95 and CDC25B CDK2 inh -0.86.
Screening CCC12CCCN3CCC4(C(=C(C(=O)OC)C1)Nc1ccccc14)C32 (configuration not stated) returned TAR Tat displ 0.16 and CDC25B CDK2 inh 0.04.
Screening COc1ccc(C2C3=C(CC(C)(C)CC3=O)Nc3nc(SC)[nH]c(=O)c32)cc1 (configuration not stated) returned CDC25B CDK2 inh -0.7.
`Clc1ccc(OCCSc2n[nH]c3nc4ccccc4n23)cc1` gave TAR Tat displ 1.7 and CDC25B CDK2 inh -0.95.
CCc1cc2c3c([nH]c2cc1S(=O)(=O)NCc1cccnc1)CC(C)(C)CC3=O was read as TAR Tat displ 1.3.
For Cc1ccc(S(=O)(=O)N2CCCC2c2cc(C)no2)cc1 (configuration not stated) the results were TAR Tat displ 0.81.
`CC(=O)Oc1ccc(C2C(C#N)=C(C)NC3=C2C(=O)CC(C)(C)C3)cc1` (configuration not stated) gave TAR Tat displ 0.49 and CDC25B CDK2 inh -0.14.
For O=C(c1ccc(SCCN2CCOCC2)nc1)N1CCC(N2CCCCC2)CC1 the results were TAR Tat displ 1.9.
Screening Cc1cc2n(n1)C(c1ccsc1)Nc1c(C)cccc1-2 (configuration not stated) returned TAR Tat displ 0.93 and CDC25B CDK2 inh -0.46.
`Cc1cc(=O)n(C)c(=O)n1CCCCN1CCOCC1` gave TAR Tat displ 0.44 and CDC25B CDK2 inh 0.43.
O=S(=O)(c1cccc2nsnc12)N1CCN(c2ncccn2)CC1 was read as CDC25B CDK2 inh -3.2.
`CCc1ccc(NS(=O)(=O)c2c(C)nc3sc(CC)nn3c2=O)cc1` gave TAR Tat displ 1.1 and CDC25B CDK2 inh -1.1.
For CC1=C(C#N)C(c2ccccc2F)C2=C(CCCC2=O)N1 (configuration not stated) the results were TAR Tat displ -0.68 and CDC25B CDK2 inh 1.4.
`CS(=O)(=O)c1ccc(-c2ccc(NC(=O)CCC3CCCCC3)cc2)nn1` gave TAR Tat displ 0.66.
`CN(C)CCNc1ncnc2c1cnn2-c1cccc(Cl)c1` gave TAR Tat displ -0.22.
`CCOC(=O)C1=C(C)Nc2nc(SCc3ccc(F)cc3)nn2C1c1ccc(F)cc1` (configuration not stated) gave TAR Tat displ 0.13 and CDC25B CDK2 inh 0.64.
O=C(NC1CCCC1)c1cccn1-c1nnc(N2CCOCC2)s1 was read as TAR Tat displ 0.82.
O=C1c2ccccc2C(=O)N1CCCc1nc2ccccc2c(=O)n1Cc1ccco1 was read as CDC25B CDK2 inh -5.2.
NC(=O)CCS(=O)(=O)CCC(N)=O was read as TAR Tat displ 0.71 and CDC25B CDK2 inh -0.85.
For CCOC(=O)c1cc2sccc2[nH]1 the results were TAR Tat displ -0.38 and CDC25B CDK2 inh -0.21.
For O=C(CCCCCn1c(=O)[nH]c2ccsc2c1=O)N1CCN(c2ncccn2)CC1 the results were CDC25B CDK2 inh 0.5.
COc1nc2ccccc2cc1-c1noc(-c2ccccc2)n1 was read as TAR Tat displ 1.6 and CDC25B CDK2 inh -20.
`O=C(C1CCN(c2nn3c(=O)c4c(nc3s2)CCCC4)CC1)N1CCCC1` gave TAR Tat displ 2.6.
Cn1cnc(-c2ccccc2NS(=O)(=O)c2ccc(Cl)cc2)n1 was read as CDC25B CDK2 inh -0.5.
Screening CC1(C)C(=O)[C@@H]2O[C@@H]2[C@@]2(C)C1CC(=O)[C@]1(C)C2CC[C@@]2(C)[C@H](c3ccoc3)OC(=O)[C@H]3O[C@]321 (some centres not stated) returned TAR Tat displ 0.97.
NC(=O)NC1NC(=O)NC1=O (configuration not stated) was read as TAR Tat displ 1.8.
For O=C(Nc1ccc(Cl)cc1)C1=Cc2sc3c(c2CS1)CCCC3 the results were TAR Tat displ -1.1.
Screening Cc1cc(C)n(CC(O)c2ccccc2)n1 (configuration not stated) returned TAR Tat displ -0.72 and CDC25B CDK2 inh -2.8.
`COC(=O)C(C)Sc1ncnc2nc[nH]c12` (configuration not stated) gave TAR Tat displ 1.3.
Screening COc1ccc(-c2onc(C)c2C)cc1S(=O)(=O)NCc1cc(C)ccc1C returned TAR Tat displ -0.01.

Ordered by SMILES length (highest first): part of the list above
Cc1cc(N2CCN(C)CC2)nc(N2CCN(S(=O)(=O)c3ccc4nc(C)sc4c3)CC2)n1 was read as TAR Tat displ 1.
Screening COc1cc(C2C(=O)N(C3CCC(C)CC3)CC(=O)N2Cc2ccco2)ccc1OC(C)C (configuration not stated) returned CDC25B CDK2 inh -1.1.
Screening CCCc1nn2c(=O)cc(CSc3nnc(-c4ccc(Cl)cc4)o3)nc2s1 returned TAR Tat displ -0.14 and CDC25B CDK2 inh -2.2.
`CN(C)c1ccc(C=Nc2ccc(S(N)(=O)=O)cc2)cc1` gave CDC25B CDK2 inh -1.3.
COc1nc2ccccc2cc1-c1noc(-c2ccccc2)n1 was read as TAR Tat displ 1.6 and CDC25B CDK2 inh -20.
NC(=O)NC1NC(=O)NC1=O (configuration not stated) was read as TAR Tat displ 1.8.

Continued:
`COc1ccc2c(c1)CN(Cc1ccc(Cl)cc1)CO2` gave CDC25B CDK2 inh -2.4.
For COc1ccc(C2NC(=O)c3c(sc4c3CCN(C)C4)N2)cc1 (configuration not stated) the results were TAR Tat displ -2 and CDC25B CDK2 inh 1.8.
Screening O=C1CCC(=O)N1c1cccc(-c2nc3ccccc3c(=O)o2)c1 returned TAR Tat displ -1.5 and CDC25B CDK2 inh 0.52.
For O=C(Nc1c2c(nn1-c1ccc(Cl)cc1)CSC2)C(=O)N1CCOCC1 the results were TAR Tat displ 2.5.
Screening CC(C)Cn1cc(NC(=O)N(Cc2ccccc2)C(C)C)c2ccccc2c1=O returned TAR Tat displ 6.6*.
Screening O=C1CC(N2CCN(c3ccccn3)CC2)C(=O)N1c1ccc(F)cc1 (configuration not stated) returned TAR Tat displ 0.16 and CDC25B CDK2 inh -1.1.
O=C1CC(c2nc3ccccc3[nH]2)CN1c1ccc(Cl)cc1 (configuration not stated) was read as TAR Tat displ 1.3 and CDC25B CDK2 inh -0.62.
CC1CCCCC1NC(=O)c1cc2c(s1)-c1ccccc1OC2 (configuration not stated) was read as TAR Tat displ 0.6 and CDC25B CDK2 inh -0.5.
Cc1cccc(-c2nc3nc(C)cc(N(C)C)n3n2)c1 was read as TAR Tat displ 0.48 and CDC25B CDK2 inh -1.1.
`CS(=O)(=O)NCCc1csc2nc(-c3ccccc3F)nn12` gave TAR Tat displ -1.
`O=c1ccc(-c2ccc(S(=O)(=O)NC3CC3)o2)n[nH]1` gave TAR Tat displ 1.7.
`CCCN1C(=O)C(NC(C)=O)c2cc(C)cc(C)c21` (configuration not stated) gave TAR Tat displ -0.72 and CDC25B CDK2 inh 0.77.

Random excerpt: 2 entries already listed
`CCCN1C(=O)C(NC(C)=O)c2cc(C)cc(C)c21` (configuration not stated) gave TAR Tat displ -0.72 and CDC25B CDK2 inh 0.77.
For COc1ccc(C2NC(=O)c3c(sc4c3CCN(C)C4)N2)cc1 (configuration not stated) the results were TAR Tat displ -2 and CDC25B CDK2 inh 1.8.

Compound activity as filed in PubChem.
